Bioassay records deposited in PubChem by several laboratories.
LANA-H2A inh = blocks KSHV LANA binding to histone H2A/H2B; 0.6% of 320,000 active; AID 2629; cell-free LANA-H2A/H2B peptide, fluorescence polarization; inhibition, % (no concentration beside the values); in the data active means inhibition mostly above about 10%, no sharp cut-off; inactive means mostly below about 6.7%;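 further: stock transfer was 7.5 nL into about 10 µL; 0% = median of vehicle wells and 100% = median of positive control wells; one replicate is shown; the record names a cut of 25% in any replicate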
HNF4A DNA FP = change in binding of human HNF4 alpha to DNA | 0.3% of 360,000 active | activity change, % at 10 µM | HNF4a-FITC DNA binding, fluorescence polarization, 1 h | P41235; in the data active means activity change above about 30%, passing the limit was not always enough;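 further: controls were the assay level and a saturating level of protein; the project sought stronger binding though the title names inhibitors; some compounds called inactive have numbers as strong as hits; positive values seem to mean higher polarization but the record does not say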
ALR H2O2 inh = blocks human ALR sulfhydryl oxidase activity; 3.8% of 290,000 active; AID 485317; inhibition, % (no concentration beside the values); purified ALR, DTT oxidation, H2O2 HRP-luminol luminescence; P55789;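 active means mean and each replicate at 75% or more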;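 further: stock transfer was 7.5 nL into about 7.5 µL; 0% = neutral wells and 100% = wells with inactivated enzyme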
Target sequence (P55789 whole entry, looked up): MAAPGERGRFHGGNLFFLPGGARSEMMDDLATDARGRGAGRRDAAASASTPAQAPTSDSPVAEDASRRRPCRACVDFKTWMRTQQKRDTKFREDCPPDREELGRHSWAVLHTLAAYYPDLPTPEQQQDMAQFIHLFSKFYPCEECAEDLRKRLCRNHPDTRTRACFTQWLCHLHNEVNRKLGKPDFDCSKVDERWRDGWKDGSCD
UCH37 DUB inh = blocks the human deubiquitinase UCH37. Q9Y5K5. inhibition, % (test concentration not listed). 0.33% of 330,000 active. purified proteasome/UCH37, Ub-AMC cleavage fluorescence;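 active means mean of two replicates above 20%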;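 further: 0% = compound-free wells with enzyme and 100% = wells lacking proteasome; stock transfer was 100 nL into about 20 µL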
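System: Proteasome-associated human UCH37 deubiquitinase; Input: 0.15 nM proteasome in added enzyme buffer; Also added: Ub-AMC substrate from 1 µM stock; Incubation: 30 min compound-proteasome preincubation then 25 min substrate reaction, room temperature; Detection: fluorescence, ex 355 nm, em 460 nm; Read-out: % inhibition of Ub-AMC cleavage fluorescence; Benchmarks: no-proteasome and no-compound wells.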
FGF22 binding = binders of recombinant human FGF22 by thermal shift | Q9HCT0 | SYPRO orange fluorescence; percent of sucrose octasulfate shift, DMSO zero | calls only at 9.99 µM | 1.5% of 340,000 active;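 active means melting point raised past a set limit in the mean and every replicate; three in four hits are not shown here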
Target sequence (Q9HCT0 whole entry, looked up): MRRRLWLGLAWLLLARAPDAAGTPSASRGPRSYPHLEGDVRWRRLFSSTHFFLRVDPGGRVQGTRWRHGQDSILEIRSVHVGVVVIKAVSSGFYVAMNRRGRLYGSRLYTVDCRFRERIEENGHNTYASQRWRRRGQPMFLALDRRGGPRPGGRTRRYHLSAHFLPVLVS
E coli growth = inhibitors of Escherichia coli growth; OD600, 23 h; stronger effect = lower value; OD600 absorbance (test concentration not listed); 0.21% of 330,000 active;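 active means OD600 absorbance below the run mean of sample wells minus 3.6 SD, in any replicate, cut at about 0.56 in these data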;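 further: stock transfer was 300 nL into about 60 µL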
B2AR ag = human beta-2 adrenergic receptor agonism by FAP; Am2.2-beta2AR cells, FAP receptor internalization, flow cytometry; reference of the scale not given here; response, % (concentration not given with the values); 0.43% of 340,000 active;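 active means response above a set limit, near 3 SD of response in nonfluorescent compounds, cut at about 42% in these data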;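 further: stock transfer was 100 nL into about 11 µL; a reference agonist was the positive control; negative values mostly stem from fluorescent compounds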
Target sequence (P07550 whole entry, looked up): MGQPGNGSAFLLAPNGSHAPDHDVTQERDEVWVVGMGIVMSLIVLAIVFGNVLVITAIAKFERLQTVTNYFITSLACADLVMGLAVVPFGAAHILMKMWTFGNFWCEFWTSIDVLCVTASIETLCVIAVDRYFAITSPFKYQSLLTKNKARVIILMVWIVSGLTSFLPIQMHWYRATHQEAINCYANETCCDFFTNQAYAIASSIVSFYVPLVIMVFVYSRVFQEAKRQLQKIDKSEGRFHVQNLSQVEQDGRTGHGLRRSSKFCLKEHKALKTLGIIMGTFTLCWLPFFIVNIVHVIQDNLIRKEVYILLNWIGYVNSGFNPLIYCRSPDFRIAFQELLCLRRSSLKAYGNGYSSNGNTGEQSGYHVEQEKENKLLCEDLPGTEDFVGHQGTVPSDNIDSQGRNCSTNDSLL
* hit, by the source's call; i = inactive; . = not tested or not shown. Only part of the results is shown. The share of hits here may be higher or lower than overall.

SMILES	LANA-H2A inh	HNF4A DNA FP	ALR H2O2 inh	UCH37 DUB inh	FGF22 binding	E coli growth	B2AR ag
Cc1ccccc1/C=N/NC(=O)c1ccc(-n2cnnn2)cc1	-0.5	-1.4	2	.	i	.	-1
CC(C)Oc1ccc(C(=O)NCC(=O)OCC(=O)N(C)Cc2cccs2)cc1	1.2	2.8	-5	3.1	i	0.71	-3
CCOc1ccccc1NC(=O)CSc1nncc2ccccc12	2.7	-2.7	-6	5.9	i	0.64	5
Cc1ccc(NC(=O)CN(C)S(=O)(=O)c2ccc3[nH]c(=O)oc3c2)c(C)c1	1.4	1.2	-2	5.0	i	0.69	19
O=C(N/N=C/c1cc2c(cc1Cl)OCO2)c1cc(-c2ccccc2)n[nH]1	-7.0	6.0	.	.	i	.	24
COc1ccc(OC)c(CN2CCN(S(=O)(=O)c3ccc(NC(C)=O)cc3)CC2)c1	3.5	-0.5	0	1.5	i	0.66	6
CCCCCCn1cc(C(=O)O)c(=O)c2cc(F)c(N3CCN(C)CC3)cc21	-1.6	1.8	-17	-47	.	0.63	-4
CCCN(CCC)c1cc(Cl)nc(N)n1	-9.7	0.5	-5	-2.2	i	0.68	1
CN(C)S(=O)(=O)c1cccc(N2C(=O)CC3(CCCCC3)CC2=O)c1	-3.2	-0.3	-11	4.6	i	0.68	-1
Cc1cc(C)cc(-n2nnnc2SCC(=O)Nc2nc(-c3ccc(F)cc3)cs2)c1	-0.6	0.1	-1	1.2	.	0.72	-9
COC(=O)c1cc(C#N)c(NCc2ccccc2)nc1C	1.9	3.0	-11	-5.2	.	0.82	.
COC(=O)c1ccc(NC(=O)CCc2c(C)nc3ncnn3c2C)cc1	-6.8	3.0	-3	2.4	.	0.67	4
Cc1onc(-c2c(Cl)cccc2Cl)c1C(=O)O/N=C(\C#N)c1c(Cl)cccc1Cl	-4.8	2.2	-5	.	i	.	0
NC(=O)c1c(NC(NC(=O)c2ccco2)(C(F)(F)F)C(F)(F)F)sc2c1CCCC2	-1.1	4.0	-7	-4.2	.	0.72	3
CCOC(=O)c1ccc(Oc2c(C)oc3c(CN4CCN(C)CC4)c(O)ccc3c2=O)cc1	1.6	-0.8	-10	-233	.	0.65	-14
C[C@H]1O[C@H](O[C@H]2[C@H](O)[C@@H](O)[C@@H](O[C@H]3[C@H](O)[C@@H](O)C(O)O[C@@H]3CO)O[C@@H]2CO)[C@H](O)[C@@H](O)[C@@H]1N[C@H]1C=C(CO)[C@@H](O)[C@H](O)[C@H]1O (some centres undefined)	-1.1	.	-1	5.4	.	.	.
CCn1c(C)[n+](CCOC(C)=O)c2cc(Cl)c(Cl)cc21	-7.2	0.0	.	1.7	.	0.72	-3
Cc1ccc(S(=O)(=O)C/N=C(/NC(=S)N(c2ccccc2)c2ccccc2)c2ccccc2)cc1	2.6	-2.5	23	.	i	.	5
COc1cc(OC)cc(C(=O)NCCNC(=O)c2ccccn2)c1	5.9	3.9	1	2.1	i	0.7	-3
COc1ccc(N(CC(=O)Nc2ccc(C)cc2C)S(=O)(=O)c2c(C)n[nH]c2C)cc1	-1.0	-2.1	0	-1.4	i	0.61	9
O=C(NCc1ccccn1)Nc1cc(Cl)cc(Cl)c1	-0.7	5.4	-4	1.4	i	0.68	0
CCOC(=O)C(NC(=O)c1ccccc1)=C1C=C(C)OC(C)=C1	-3.5	-2.8	38	3.0	.	0.71	2
O=C(O)c1ccc(N2C(=O)CC(N3C(=O)/C(=C/c4ccc(Cl)cc4)SC3=S)C2=O)cc1 (centres undefined)	13	-0.6	100*	8.2	i	0.63	7
Cc1ccc(S(=O)(=O)N(C)c2ccc(C(=O)Nc3c(C)n(C)n(-c4ccccc4)c3=O)cc2)cc1	-3.0	-2.3	-1	-1.8	i	0.65	-5
CC1CCN(S(=O)(=O)c2ccc3ncn(CC(=O)N(C)Cc4ccccc4)c(=O)c3c2)CC1	5.2	-1.2	4	2.0	.	0.65	-9

2 of these compounds, reformatted.
CCCN(CCC)c1cc(Cl)nc(N)n1
  LANA-H2A inh: -9.7
  HNF4A DNA FP: 0.5
  ALR H2O2 inh: -5
  UCH37 DUB inh: -2.2
  FGF22 binding: i
  E coli growth: 0.68
  B2AR ag: 1
CN(C)S(=O)(=O)c1cccc(N2C(=O)CC3(CCCCC3)CC2=O)c1
  LANA-H2A inh: -3.2
  HNF4A DNA FP: -0.3
  ALR H2O2 inh: -11
  UCH37 DUB inh: 4.6
  FGF22 binding: i
  E coli growth: 0.68
  B2AR ag: -1

Continued:
SMILES	LANA-H2A inh	HNF4A DNA FP	ALR H2O2 inh	UCH37 DUB inh	FGF22 binding	E coli growth	B2AR ag
Cn1c(=O)c(C(=O)CN2CCCc3ccccc32)c(N)n(Cc2ccccc2)c1=O	-4.4	5.8	1	-2.1	.	0.76	-4
O=C(Nc1cccc(C(F)(F)F)c1)c1cccnc1N1CCN(c2ccccc2)CC1	3.1	-3.6	0	1.0	.	0.7	0
CC(=O)N1CCN(C(=O)CNC(=O)c2ccc(C)s2)CC1	.	0.1	.	0.6	i	0.69	-3
O=C1OCCN1CC(=O)N1CCc2c([nH]c3ccccc23)C1c1ccccn1 (centres undefined)	6.1	-6.6	-2	5.5	i	0.68	-3
Oc1ccccc1CNc1ccc(Br)cn1	6.7	-2.4	43	-3.4	.	0.7	-7
O=C(c1ccco1)N1CCN(C(=S)Nc2cccc([N+](=O)[O-])c2)CC1	7.6	2.0	12	3.7	i	0.71	4
CCN(CC)C(=O)COC(=O)c1ccc(O)cc1	-0.9	2.5	-12	2.8	.	0.68	-10
Cc1ccc(NC(=O)C2=C(C(=O)O)CCCC2)cc1Br	-3.9	-5.4	11	3.3	i	0.64	-5
COCCn1nnnc1C(c1cccc(C(F)(F)F)c1)N1CCN(Cc2ccccc2)CC1 (centres undefined)	-1.8	-4.3	-4	2.1	.	0.7	-4
C=CCNC(=S)Nc1ccc(F)cc1F	2.9	0.6	-22	0.9	i	0.66	3
C=CCN(C(C)=O)C1CC(=O)N(c2ccc(OCCC)cc2)C1=O (centres undefined)	-0.2	-1.4	-1	3.7	.	0.8	-4
Cc1ccc(C)c(S(=O)(=O)Nc2ccc(C(=O)N3CCCCC3)cc2)c1	-5.9	-1.1	0	1.1	i	0.7	2
Cc1ccnc(NC(=O)c2ccc3c(c2)OCO3)c1	-1.5	-0.7	66	4.1	i	0.67	5
O=c1cc(CN2CCc3ccccc32)c2ccc(O)cc2o1	0.0	-26	99*	-45	i	0.68	0
O=C(NCCOC(=O)c1ccc(Cl)c(S(=O)(=O)N2CCCCC2)c1)c1ccncc1	-0.4	1.8	-7	3.2	.	0.7	14
COc1cccc(NC(=O)CN(C)C(=O)c2ccc3c(c2)C(=O)N(CCC(C)C)C3=O)c1	-2.6	12	.	3.6	i	0.69	0
CCc1cccc(NC(=O)Cn2cc3c(n2)CCCC3)c1	-4.7	-2.0	-5	-0.6	i	0.68	-6
O=C(NC1CCCCCC1)C1c2ccccc2C(=O)N1Cc1cccs1 (centres undefined)	4.4	0.7	-7	4.7	i	0.68	-1
COC(=O)Cc1ccc(NC(=O)c2ccc(Br)o2)cc1	-1.2	32	-2	-1.0	.	0.7	-1
CC1Cc2ccccc2N1C(=O)CN(C)S(=O)(=O)c1cccc2cccnc12 (centres undefined)	-8.2	-0.2	42	9.6	i	0.75	-10
O=C(CCC1CCCC1)N1CCC(N2CCN(c3ccccc3)CC2)CC1	5.1	3.7	67	0.5	.	0.66	3
CCOc1ccc(CCNC(=O)c2nn(C)c3c2CS(=O)(=O)c2ccccc2-3)cc1	-0.1	1.8	-1	0.3	i	0.68	11
CN(C(=O)COC(=O)CCC(=O)c1ccc(F)cc1)C1CCCCC1	-0.9	-0.8	-5	1.3	i	0.62	0
CCc1nc(-c2ccc(C)nc2OC)no1	4.5	-4.1	1	-3.9	.	0.76	4
CC1CC(C)CN(C(=O)c2cccc(N3C(=O)c4ccccc4C3=O)c2)C1 (centres undefined)	2.0	-1.4	.	4.2	i	0.66	-1
The listing continues.
SMILES	LANA-H2A inh	HNF4A DNA FP	ALR H2O2 inh	UCH37 DUB inh	FGF22 binding	E coli growth	B2AR ag
CCOC(=O)c1ccc(NC(=O)NCCc2cnc[nH]2)cc1	3.1	-1.4	17	3.9	i	0.73	5
Cc1ccc(S(=O)(=O)NCC(=O)N2CCCCC2)cc1	-3.1	2.3	-1	2.8	i	0.71	10
CCCCCOc1ccc(CSc2ncn[nH]2)cc1	-10	-1.1	8	2.7	.	0.64	-1
COc1ccc(CCNC(=O)c2cc(-c3cc(Cl)cc(Cl)c3)oc2C)cc1	0.2	1.1	-3	4.3	.	0.74	10
C=CCCC(=O)NC1CCCc2c1cnn2-c1ccccc1F (centres undefined)	0.9	2.9	.	0.8	i	0.71	-1
CN(C)c1nc(OCCNC(=O)Nc2ccccc2)nc(N2CCOCC2)n1	.	0.9	.	0.3	.	0.66	-4
Cc1ccc(N2C(=O)CN=C2Nc2nc(C)cc(C)n2)cc1	-3.9	4.4	-5	2.0	i	0.67	-1
Cc1csc2nc(CSc3nc4ccccc4o3)c(Br)n12	-4.7	-0.4	-6	0.7	.	0.68	3
Cc1nc(Cl)c(C#N)cc1-c1ccccc1	0.0	4.6	.	-0.1	.	0.7	-17
CCOC(=O)c1cc2c(ccn2C)n1CC(=O)N1CCCC(C)C1 (centres undefined)	4.3	-2.2	.	2.8	.	0.72	9
O=C(/C=C/c1ccccc1Cl)N(c1ccccn1)C1CCCCC1	2.8	1.9	2	2.3	.	0.62	26
Cc1cc2c3c(c1)C1(C(=O)N3C(C)(C)CC2C)C(C#N)=C(N)OC2=C1C(=O)CC(C)(C)C2 (centres undefined)	-0.9	-6.8	0	3.2	.	0.69	2
Cc1ccc(-c2csc(NC(=O)Cc3ccc(F)cc3)n2)o1	-4.6	5.9	-1	2.2	i	0.69	5
CC(C)c1nc(SCC(=O)Nc2ccc([N+](=O)[O-])cc2Br)n[nH]1	5.6	4.2	-34	2.5	i	0.71	-6
CCC(C)n1c(=N)c(C#N)cc2c(=O)n3ccccc3nc21 (centres undefined)	25	-2.8	-4	-119	.	0.76	-9
Cc1cc(S(=O)(=O)N2CCC(N3CCCCC3)CC2)ccc1-n1cnnn1	-1.8	-1.7	-9	-0.2	.	0.69	-3
CCOCCn1c(CN2CCN(c3ccc(OC)cc3)CC2)nc2c1c(=O)n(C)c(=O)n2C	2.4	3.4	74	2.6	.	0.74	-1
N#C/C(=C\c1ccccc1[N+](=O)[O-])c1nc(C2CC2)cs1	0.1	-1.5	73	6.2	.	0.64	-3
COc1ccc(Cn2c(=O)cc(N)n(-c3ccccc3C)c2=O)cc1	6.1	2.1	.	1.4	i	0.7	-4
CCOc1ccc(S(=O)(=O)Nc2nccs2)cc1	0.4	-1.4	1	-0.6	.	0.68	3
COc1ccccc1NS(=O)(=O)c1ccc(C)c(C(=O)Nc2cc(C)on2)c1	1.5	1.1	0	4.1	i	0.66	0
CN1CCN(CCCNC(=O)CCN2C(=O)COc3ccccc32)CC1	-2.4	2.1	2	2.4	i	0.68	2
CCCc1c2ccccc2nc2ccccc12	-4.7	-0.8	-3	-475	.	0.6	3
COCCN1CCn2c(nc3cc(NS(C)(=O)=O)ccc32)C1	-3.1	-3.3	-2	-1.1	i	0.71	-3
S=c1[nH]nc(-c2cc3ccccc3o2)n1Cc1ccccc1	-0.2	-1.6	55	-6.5	.	0.65	-2
O=c1cc(CO)oc(C(Nc2cccc([N+](=O)[O-])c2)c2ccccn2)c1O (centres undefined)	2.0	1.7	94*	3.2	i	0.69	5
Cc1cccc2cc(-c3nc4c(C)cccn4c3NCc3ccco3)c(=O)[nH]c12	-1.5	-1.3	.	25*	.	0.71	2
CCOC(=O)c1cccc(-c2ccc(C=O)o2)c1	5.9	0.6	.	4.8	i	0.64	7
CCOC(=O)c1cnc(-n2nc(C)cc2C)nc1NNc1nc(C)cc(C)n1	3.2	1.6	7	1.3	.	0.63	0
